High-throughput results from PubChem.
Vaccinia inh: blocks a specific stage of Vaccinia orthopoxvirus infection, primary screen, cell-based, single point. activity change (mCherry), % (test concentration not listed). Vaccinia-infected cells, mCherry/Venus stage reporter fluorescence; stronger effect = lower value; some inactives read as strong as hits. 89,000 compounds, 0.01% hits;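 active means mCherry past -33% and 40 or more points under the early reporter, replicates agreeing; inconclusive means past -33% without that gap or agreement; tested in A549 cells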;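 further: scaled between vehicle wells and reference inhibitor wells; 23 nL library stock went into each well; one replicate is shown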
Vaccinia inh Venus: also measured in Vaccinia inh; calls as there; activity change (Venus), %; measured here: Venus reporter, other viral stage;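 negative = less Venus signal; first of two replicates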
The depositor's hits bear a star; ? = inconclusive; nt = no result given. This is a subset. The share of hits here may be higher or lower than overall.

SMILES	Vaccinia inh	Vaccinia inh Venus
COc1ccc2c3c([nH]c2c1)[C@H](CO)N(C(=O)C1CC1)CC31CN(Cc2cccc(F)c2)C1	-34.5	-29.0
C[C@@H]1CN([C@H](C)CO)C(=O)c2cc(NS(=O)(=O)c3cn(C)cn3)ccc2O[C@@H](C)CCCCO[C@@H]1CN(C)C(=O)c1ccncc1	7.6	11.0
C[C@@H]1CCCCO[C@H](CN(C)C(=O)NC2CCCCC2)[C@H](C)CN([C@@H](C)CO)C(=O)c2cc(NC(=O)C3CCCCC3)ccc2O1	?	nt
CO[C@@H]1CN(C)C(=O)c2cc(NS(C)(=O)=O)ccc2OC[C@@H](C)N(CC2CCCCC2)C[C@@H]1C	5.3	6.5
CCCNC(=O)N1[C@H](CO)[C@H](c2ccccc2)[C@@H]1C#N	8.2	8.8
CO[C@@H]1CN(C)C(=O)c2ccc(NC(=O)NC(C)C)cc2OC[C@H](C)N(C(=O)CN(C)C)C[C@H]1C	20.3	12.5
CCCNC(=O)N1C[C@H](O)COC[C@@H]2O[C@H](CC(=O)OC)CC[C@H]21	-0.2	-2.2
O=C(C1CCCCC1)N1CC(=O)N2[C@H](CO)[C@@H](c3ccc(C#CCc4ccccc4)cc3)[C@@H]2C1	-23.1	-18.3
CC(C)NC(=O)N(C)C[C@@H]1Oc2ccc(NC(=O)Nc3ccccc3)cc2C(=O)N([C@H](C)CO)C[C@H]1C	7.7	9.7
C[C@H](NC(=O)[C@H]1[C@H](CO)[C@H]2Cn3c(ccc(C4=CCCC4)c3=O)[C@H]2N1C)c1ccccc1	-3.7	-1.6
Cc1noc(C)c1NC(=O)Nc1ccc2c(c1)C(=O)N([C@H](C)CO)C[C@H](C)[C@H](CN(C)Cc1ccc(Cl)c(Cl)c1)O2	-8.1	-12.1
CN(C)CC(=O)N[C@H]1CC[C@@H](CC(=O)NCc2ccccc2F)O[C@@H]1CO	7.5	0.9
CCCC(=O)Nc1ccc2c(c1)OC[C@H](C)N(C)C[C@H](C)[C@@H](OC)CN(C)C2=O	9.2	8.8
CCN1[C@@H]2c3ccc(-c4ccc(OC)cc4)c(=O)n3C[C@H]1[C@H](CO)[C@H]2C(=O)NCC1CC1	7.7	7.0
CC(C)NC(=O)N(C)C[C@H]1OCCCC[C@@H](C)Oc2ccc(NC(=O)CCC(F)(F)F)cc2C(=O)N([C@H](C)CO)C[C@H]1C	21.7	11.0
COc1ccc(C#Cc2ccc3c(c2)[C@@H]2[C@@H](CCN2C(=O)C2CCCC2)[C@@H](CO)N3)cc1	-1.1	5.1
O=C(C[C@@H]1C=C[C@@H](NC(=O)c2ccccc2)[C@H](CO)O1)Nc1ccc(-c2ccccc2)cc1	-7.1	-8.5
CO[C@@H]1CN(C)C(=O)c2cc(NS(=O)(=O)c3ccccc3F)ccc2OC[C@@H](C)NC[C@@H]1C	14.2	19.8
C[C@@H]1CCc2cnnn2COC[C@@H](c2ccccc2)NC1=O	14.1	9.4
C[C@@H]1CN([C@H](C)CO)C(=O)c2cccc(NC(=O)Nc3ccc(C(F)(F)F)cc3)c2O[C@H]1CN(C)C(=O)NC1CCCCC1	?	nt
C[C@H]1CCCCO[C@@H](CN(C)C(=O)NC2CCCCC2)[C@@H](C)CN([C@@H](C)CO)C(=O)c2cc(NC(=O)c3ccncc3)ccc2O1	13.8	14.7
CCCNC(=O)N1CC2(C1)[C@@H](c1ccccc1)[C@@H](CO)N2C(=O)CC1CC1	-3.5	3.4
CN1C(=O)c2cc(NC(=O)c3cccc(F)c3)ccc2OC[C@H]2O[C@H](CC(=O)NCc3ccccc3Cl)CC[C@H]21	-28.4	-19.4
C[C@H]1CN([C@@H](C)CO)C(=O)c2cc(-c3ccncc3)cnc2O[C@@H]1CN(C)Cc1cccnc1	23.9	16.7
C[C@H](CO)N1C[C@H](C)[C@H](CN(C)Cc2ccc(-c3ccccc3)cc2)Oc2ccc(NC(=O)c3ccncc3)cc2CC1=O	-18.7	-8.8
Following part:
SMILES	Vaccinia inh	Vaccinia inh Venus
C[C@@H](NC(=O)C[C@H]1C[C@@H]2c3cc(NC(=O)C4CCC4)ccc3O[C@@H]2[C@H](CO)O1)c1ccccc1	-7.7	-1.6
COc1ccccc1C#Cc1ccc2c(c1)O[C@@H](CN(C)Cc1cncnc1)[C@H](C)CN([C@@H](C)CO)S2(=O)=O	?	nt
COCC(=O)Nc1ccc2c(c1)C(=O)N(C)C[C@H](OC)[C@H](C)CN(CCc1ccccc1)[C@H](C)CO2	2.8	-5.6
CN1C(=O)c2cc(NS(C)(=O)=O)ccc2OC[C@@H]2O[C@@H](CC(=O)NCc3ccccc3)CC[C@@H]21	13.5	3.5
CN(C)C(=O)C[C@@H]1CC[C@H]2[C@H](COc3ccc(NC(=O)C4CC4)cc3C(=O)N2C)O1	15.3	4.1
C[C@@H](NC(=O)C[C@H]1C[C@@H]2c3cc(NS(C)(=O)=O)ccc3O[C@@H]2[C@@H](CO)O1)c1ccccc1	4.5	1.8
C[C@@H]1CN([C@H](C)CO)C(=O)c2cc(NS(C)(=O)=O)ccc2O[C@@H]1CN(C)S(=O)(=O)c1ccc(F)cc1	13.9	1.6
O=C(C[C@H]1CC[C@@H]2[C@H](COC[C@H](O)CN2Cc2cocn2)O1)NCc1cccc(F)c1	0.6	1.3
COc1ccc2c3c(n(C)c2c1)[C@@H](CO)N(S(=O)(=O)c1ccc(C)cc1)CC31CCN(S(=O)(=O)c2ccc(C)cc2)CC1	-15.1	-24.7
COC(=O)C[C@@H]1CC[C@@H]2[C@H](COc3ccc(NC(=O)c4cccc(Cl)c4)cc3C(=O)N2C)O1	-7.7	-5.7
C[C@H](CO)N1C[C@H](C)[C@H](CN(C)Cc2cncnc2)Oc2cc(C3=CCCC3)ccc2S1(=O)=O	10.4	5.2
COc1ccc(NC(=O)N(C)C[C@H]2OCc3ccccc3-c3ccccc3C(=O)N([C@@H](C)CO)C[C@H]2C)c(OC)c1	25.3	21.1
CNC(=O)C[C@@H]1CC[C@@H]2[C@@H](COc3ccc(NC(=O)c4ccc(OC)cc4)cc3C(=O)N2C)O1	3.6	-1.5
CCS(=O)(=O)Nc1ccc2c(c1)C(=O)N(C)[C@@H]1CC[C@H](CC(=O)N3CCCCC3)O[C@H]1CO2	1.7	-2.1
C[C@H]1CN([C@@H](C)CO)C(=O)c2cccc(NC(=O)Nc3ccc(C(F)(F)F)cc3)c2O[C@@H]1CN(C)Cc1ccc(C(=O)Nc2ccccc2N)cc1	-12.5	-8.7
Cc1noc(C)c1S(=O)(=O)N(C)C[C@@H]1Oc2ccc(NS(=O)(=O)c3ccc(F)cc3)cc2CC(=O)N([C@@H](C)CO)C[C@H]1C	8.2	7.8
O=C(Nc1cccc(Cl)c1)N[C@@H]1CC[C@H](CCNC(=O)C2CCOCC2)O[C@H]1CO	2.7	-7.0
C[C@H](NC(=O)C[C@H]1CC[C@H]2[C@@H](COC[C@@H](O)CN2C(=O)Nc2cccc(F)c2)O1)c1ccccc1	-10.2	-3.7
COc1ccc(S(=O)(=O)N(C)C[C@H]2OCCCC[C@H](C)Oc3ccc(NC(=O)Nc4cccc5ccccc45)cc3C(=O)N([C@@H](C)CO)C[C@H]2C)cc1	16.7	12.9
O=C(C[C@@H]1CC[C@@H]2[C@H](COC[C@H](O)CN2S(=O)(=O)c2ccc(Cl)cc2)O1)NCC1CCCCC1	-1.5	-2.3
CCS(=O)(=O)Nc1ccc2c(c1)C(=O)N(C)C[C@H](OC)[C@H](C)CN(C(=O)C1CC1)[C@H](C)CO2	9.1	12.7
O=C(CC(F)(F)F)N1C[C@@H]2[C@H](c3ccccc31)[C@H](CO)N2C(=O)CN1CCOCC1	4.1	-1.3
C[C@@H]1CN([C@@H](C)CO)C(=O)Cc2cc(NC(=O)C3CC3)ccc2O[C@H]1CN(C)S(=O)(=O)c1ccccc1	-1.8	3.2
C[C@@H]1CCCCO[C@H](CN(C)C(=O)Nc2ccc3c(c2)OCO3)[C@@H](C)CN([C@@H](C)CO)C(=O)c2cc(NS(=O)(=O)c3cccs3)ccc2O1	-14.6	-16.2
O=C(C[C@@H]1C=C[C@@H](NC(=O)c2ccccc2)[C@@H](CO)O1)NCc1ccc(Oc2ccccc2)cc1	-18.1	-15.2
(further entries)
SMILES	Vaccinia inh	Vaccinia inh Venus
C[C@@H]1CN([C@H](C)CO)C(=O)c2cc(-c3ccncc3)cnc2O[C@H]1CN(C)C(=O)Cc1cccnc1	4.0	2.6
CO[C@H]1CN(C)C(=O)c2cc(NC(C)=O)ccc2OC[C@H](C)N(S(=O)(=O)c2cn(C)cn2)C[C@@H]1C	20.0	13.1
Cc1ccc(S(=O)(=O)N(C)C[C@H]2Oc3ccc(NS(=O)(=O)c4ccc(Cl)cc4)cc3C(=O)N([C@H](C)CO)C[C@H]2C)cc1	?	nt
O=S(=O)(N[C@H]1CC[C@@H](CCn2cc(-c3ccc(F)cc3)nn2)O[C@@H]1CO)c1ccccc1F	3.2	7.8
C[C@@H]1CN([C@H](C)CO)S(=O)(=O)c2ccc(C3=CCCCC3)cc2O[C@H]1CN(C)C(=O)Cc1ccccc1	?	nt
OC[C@H]1[C@H](c2ccc(C#CC3CCCC3)cc2)[C@@H]2CN(CCC(F)(F)F)CCCCN12	?	nt
CN1CCN(C(=O)C[C@@H]2CC[C@@H]3[C@@H](COc4ccc(NC(=O)c5ccc(F)c(F)c5)cc4C(=O)N3C)O2)CC1	3.7	-2.6
CNC[C@H]1Oc2ccc(NC(=O)Cn3cnnn3)cc2CC(=O)N([C@H](C)CO)C[C@@H]1C	7.0	-1.4
COc1ccc2c3c(n(C)c2c1)[C@@H](CO)N(C(=O)c1ccc(F)cc1)CC31CCN(C)CC1	-1.9	-4.4
CN(C)CC(=O)N1CC(=O)N2[C@H](CO)[C@@H](c3ccc(-c4ccc(C(=O)N(C)C)cc4)cc3)[C@H]2C1	15.5	10.2
CN1C(=O)c2cc(NC(=O)Nc3cccc(Cl)c3)ccc2OC[C@@H]2O[C@H](CC(=O)NCCc3ccncc3)CC[C@@H]21	5.3	14.7
O=C(Cc1cccnc1)N1CC(=O)N2[C@H](CO)[C@@H](c3ccc(C#CC4CCCCC4)cc3)[C@@H]2C1	?	nt
CC=Cc1ccc2n(c1=O)C[C@H]1[C@H](CO)[C@@H](C(=O)N3CCc4ccccc4C3)N[C@@H]21 (mixture of isomers)	7.0	-2.5
NCC[C@@H]1CC[C@@H](NC(=O)C2CCC2)[C@H](CO)O1	9.4	7.5
CN(C)C(=O)c1cccc(-c2ccc([C@H]3[C@@H](CO)N4CCCCN(C(=O)C5CCCC5)C[C@@H]34)cc2)c1	10.8	7.2
C[C@H]1CN([C@@H](C)CO)C(=O)Cc2cc(NC(=O)Nc3ccc(F)cc3)ccc2O[C@@H]1CN(C)CC1CC1	-18.4	-12.8
C[C@H](O)C#Cc1ccc2c(c1)O[C@H](CN(C)C(=O)CN(C)C)[C@@H](C)CN([C@H](C)CO)S2(=O)=O	-0.9	2.1
COCC(=O)Nc1ccc2c(c1)OC[C@H](C)N(Cc1ccccc1OC)C[C@@H](C)[C@H](OC)CN(C)C2=O	-30.9	-19.6
C[C@H]1CN([C@@H](C)CO)S(=O)(=O)c2ccc(-c3cccc(C#N)c3)cc2O[C@H]1CN(C)C(=O)c1ccncc1	9.9	3.1
C[C@@H]1CN([C@@H](C)CO)C(=O)CCCn2nncc2CO[C@@H]1CN(C)C(=O)Nc1ccc(N2CCN(C)CC2)cc1	6.6	9.9
Cc1noc(C)c1NC(=O)N(C)C[C@@H]1Oc2c(NS(=O)(=O)c3ccc(F)cc3)cccc2C(=O)N([C@@H](C)CO)C[C@H]1C	23.2	6.6
CC(=O)N(C[C@H]1N[C@H](CO)[C@H]1c1ccc(-c2ccc(F)cc2)cc1)C(C)C	-22.0	-5.3
COc1ccc2c3c([nH]c2c1)[C@@H](CO)N(C(=O)c1cccnc1)CC31CN(Cc2ccccc2)C1	-2.1	-9.3
C[C@@H]1CN([C@@H](C)CO)C(=O)c2cc(C3=CCCC3)cnc2O[C@@H]1CN(C)C	-2.7	2.1
C[C@H](CO)N1C[C@H](C)[C@H](CN(C)S(C)(=O)=O)OCCCC[C@H](C)Oc2ccc(N(C)C)cc2C1=O	0.7	1.1
COc1ccc(C(=O)Nc2ccc3c(c2)OC[C@@H](C)NC[C@H](C)[C@@H](OC)CN(C)C3=O)cc1	-1.2	-2.7
COCC(=O)N1CC2(CN(C(=O)CN3CCOCC3)C2)c2c([nH]c3cc(OC)ccc23)[C@H]1CO	30.2	14.3
CNC[C@H]1Oc2ncc(C#CC3(O)CCCC3)cc2C(=O)N([C@H](C)CO)C[C@@H]1C	-3.0	1.8
C[C@@H]1CN([C@H](C)CO)S(=O)(=O)c2ccc(-c3ccncc3)cc2O[C@@H]1CN(C)C(=O)c1cccc(F)c1	9.7	-8.0
COC(=O)[C@@H]1[C@@H](CO)[C@@H]2Cn3c(ccc(-c4cccc(F)c4)c3=O)[C@@H]2N1CC1CC1	13.7	4.6

Whole records, quoted from the list. Values in the order: Vaccinia inh | Vaccinia inh Venus
COC(=O)[C@@H]1[C@@H](CO)[C@@H]2Cn3c(ccc(-c4cccc(F)c4)c3=O)[C@@H]2N1CC1CC1 in the list: 13.7 | 4.6
CC(=O)N(C[C@H]1N[C@H](CO)[C@H]1c1ccc(-c2ccc(F)cc2)cc1)C(C)C in the list: -22.0 | -5.3
CN(C)C(=O)c1cccc(-c2ccc([C@H]3[C@@H](CO)N4CCCCN(C(=O)C5CCCC5)C[C@@H]34)cc2)c1 in the list: 10.8 | 7.2
OC[C@H]1[C@H](c2ccc(C#CC3CCCC3)cc2)[C@@H]2CN(CCC(F)(F)F)CCCCN12 in the list: ? | nt
CN1C(=O)c2cc(NC(=O)Nc3cccc(Cl)c3)ccc2OC[C@@H]2O[C@H](CC(=O)NCCc3ccncc3)CC[C@@H]21 in the list: 5.3 | 14.7

For convenience, some entries already given.
SMILES	Vaccinia inh	Vaccinia inh Venus
C[C@H](O)C#Cc1ccc2c(c1)O[C@H](CN(C)C(=O)CN(C)C)[C@@H](C)CN([C@H](C)CO)S2(=O)=O	-0.9	2.1
COCC(=O)Nc1ccc2c(c1)OC[C@H](C)N(Cc1ccccc1OC)C[C@@H](C)[C@H](OC)CN(C)C2=O	-30.9	-19.6
